Screening data deposited in PubChem by National Center for Advancing Translational Sciences (NCATS).
StopGo reporter: High Throughput Screening for Foot and Mouth Disease Virus Antivirals. human cells with a luciferase reporter of 2A StopGo recoding; control for the full effect not named in the record. Potency, µM (top dose mostly 57.9 µM), without a hit: top-dose signal change, negative = less light. 410,000 compounds, 1.2% hits. AID 1159524, 2015; active = well fitted falling curve with a large enough effect; inconclusive = small, poorly fitted or top-dose-only effect; inactive = no such curve, though single readings can be large or run the other way; tested in HEK293T cells; also: % is scaled to controls: 0 for no effect and ±100 for the full control effect; nearly all actives have a fitted effect of over 45% in size; luciferase light after 4 h
Cruzain inh noDet: qHTS Assay for Promiscuous and Specific Inhibitors of Cruzain (without detergent) | purified cruzain, Z-FR-AMC fluorescence, no detergent | Potency, µM, without a hit: max response, negative = inhibition, actives largely listed as inhibitors | 200,000 compounds, 2.3% hits | AID 1476, 2009;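 also: plate controls were enzyme without inhibitor for no effect and buffer without enzyme for full effect; nearly all actives have a fitted effect of over 40% in size; top concentration of the series not given in the record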
Target sequence (P25779 123-467 limits assumed): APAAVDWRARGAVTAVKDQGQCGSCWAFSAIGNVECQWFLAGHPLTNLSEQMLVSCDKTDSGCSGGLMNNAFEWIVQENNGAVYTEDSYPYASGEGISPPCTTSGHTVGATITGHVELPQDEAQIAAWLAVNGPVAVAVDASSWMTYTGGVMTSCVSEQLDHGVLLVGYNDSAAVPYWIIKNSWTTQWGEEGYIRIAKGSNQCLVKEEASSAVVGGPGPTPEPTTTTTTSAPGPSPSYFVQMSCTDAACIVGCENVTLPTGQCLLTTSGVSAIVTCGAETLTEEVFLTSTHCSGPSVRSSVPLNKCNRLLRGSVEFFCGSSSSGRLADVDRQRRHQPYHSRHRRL
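Purified cruzain at 1.5 nM, pre-incubated 15 min with compound at room temperature in 100 mM sodium acetate pH 5.5, 5 mM DTT, 0.00005% Triton X-100. Reaction started with 2 uM Z-FR-AMC; AMC fluorescence increase over 60 s gives rate.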
Marburg entry inh: qHTS for inhibitors of binding or entry into cells for Marburg Virus | 300,000 compounds, 1.8% hits | Marburg virus pseudotyped entry inhibition, cell reporter; control for the full effect not named in the record; about a third of the inactives were read at about 46 µM | Potency, µM (series often up to 37.8 µM), for the others: at the top dose activity change, negative = inhibition, actives largely listed as inhibitors | AID 540276, 2011; active = well fitted inhibition curve with a large enough effect; inconclusive = small, poorly fitted or top-dose-only effect, or effect the other way; inactive = flat fitted curve, though single readings scatter; tested in HEK293 cells; about a fifth of its hits are not listed in these tables; also: % is scaled to controls: 0 for no effect and ±100 for the full control effect; luciferase read-out
RE007 growth inh: qHTS Assay for Inhibitors of the HIV-1 protein Vpr | S. pombe RE007 Vpr strain, BacTiter-Glo ATP luminescence, 24 h; control for the full effect not named in the record | Potency, µM (highest dose often 92.2 µM), for the others: top-dose activity change, negative = less growth | 360,000 compounds, 0.21% hits; active = well fitted falling curve with a large enough effect; inconclusive = small, poorly fitted or top-dose-only effect; inactive = no such curve, though single readings can be large or run the other way;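 also: % is scaled to controls: 0 for no effect and ±100 for the full control effect; nearly all actives have a fitted effect of over 50% in size; the assay follows cell death caused by Vpr and the record does not say whether a fall means rescue or toxicity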
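Fission yeast RE007 carrying one integrated HIV-1 vpr copy, seeded at OD 0.01 in PMG+AL medium with 23 nL pinned compound. Grown 24 h at 30 degrees; viability read by BacTiter-Glo luminescence after 5 min.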
Lassa entry inh: qHTS for Inhibitors of binding or entry into cells for Lassa Virus; Lassa virus pseudotype entry inhibition, cell reporter; control for the full effect not named in the record; Potency, µM (highest dose often 37.9 µM), for inactives: at the top dose activity change, negative = inhibition, most hits filed as inhibitors; 300,000 compounds, 1.2% hits; AID 540256, 2011; active means well fitted inhibition curve with a large enough effect; inconclusive means small, poorly fitted or top-dose-only effect, or effect the other way; inactive means flat fitted curve, though single readings scatter; tested in HEK293 cells; also: % is scaled to controls: 0 for no effect and ±100 for the full control effect; nearly all actives have a fitted effect of over 50% in size; luciferase read-out
SARS PLpro yeast: qHTS of Yeast-based Assay for SARS-CoV PLP. S. cerevisiae expressing SARS-CoV PLpro, growth rescue; control for the full effect not named in the record. Potency, µM (top dose mostly 32.9 µM), inactives show at the top dose activity, positive = growth rescue. 330,000 compounds, 0.19% hits. AID 485353, 2010; active means well fitted rising curve with a large enough effect; inconclusive means small, poorly fitted or top-dose-only effect; inactive means no such curve, though single readings can be large or run the other way; also: 0% is about no effect; nearly all actives have a fitted effect of over 55% in size; growth read by luminescence after 48 h
Cruzain inh Det: qHTS Assay for Promiscuous and Specific Inhibitors of Cruzain (with detergent); Cruzipain (Trypanosoma cruzi), P25779; purified cruzain, Z-FR-AMC fluorescence, 0.01% Triton; Potency, µM, without a hit: max response, negative = inhibition, hits mostly inhibitors; 200,000 compounds, 0.43% hits; AID 1478, 2009;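 also: plate controls were neutral wells for no effect and buffer without enzyme for full effect; nearly all actives have a fitted effect of over 40% in size; top concentration of the series not given in the record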
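In this qHTS format, compounds are incubated with 1.5 nM cruzain for 15 min at room temperature before 2 uM Z-FR-AMC is added. Release of AMC is followed at 360/450 nm, and progress is taken as the 60 s fluorescence difference.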
NS1 inh: qHTS Assay for Inhibitors of Influenza NS1 Protein Function; Potency, µM (doses to about 46.1 µM), for the others: at the top dose activity, positive = more growth; S. cerevisiae slowed by influenza A NS1, growth recovery by OD600; 270,000 compounds, 0.4% hits; AID 2326, 2010; active means well fitted rising curve with a large enough effect; inconclusive means small, poorly fitted or top-dose-only effect; inactive means no such curve, though single readings can be large or run the other way; also: nearly all actives have a fitted effect of over 50% in size
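In this qHTS, NS1 from influenza A is expressed in budding yeast, where it slows growth. Cells are switched from glucose to 2% galactose medium (pH 6.0, -URA), treated with compound, and growth recovery is read at OD600.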
An asterisk follows results filed as active; ? = inconclusive; . = not tested or not shown; & = joins results of further samples; [ ] = remark or other dose. Unless noted, calls follow the shape of the dose curve; as a rule, active = well fitted curve in the direction sought with a large enough effect; inconclusive = small, poorly fitted or top-dose-only effect, or another doubt; inactive = no such curve, though single readings can be large; an effect the other way counts as inactive or inconclusive. Potency is read from the fitted curve at half-maximal effect. Compounds as they come. Share with any hit: about 4.5%.

SMILES | StopGo reporter | Cruzain inh noDet | Marburg entry inh | RE007 growth inh | Lassa entry inh | SARS PLpro yeast | Cruzain inh Det | NS1 inh
CC1CCc2c(C(=O)Nc3ccc(OC(F)(F)F)cc3)csc2C1 (stereo not given) | -19% | -4% | ? | -7% | -10% | 9% | -7.5% | 14%
NC(=O)/C(=N\OC(=O)c1ccco1)c1nc(-c2ccc(Br)cc2)cs1 | -6% | 1% | ? | -24% | 13% | -3% | -2.6% | -8%
Cc1ccc(NC(=O)c2ccccc2OCc2ccc([N+](=O)[O-])cc2)nc1 | 4% | . | ? | -23% | . | 1% | . | 4%
CCc1c(C)nc(SC/C=C/c2ccccc2)[nH]c1=O | -17% | . | . | 1% | . | 25% | . | -2%
CCOc1cccc(C2NCc3ccccc3-n3cccc32)c1O (stereo not given) | -8% | 7% | -29% | -3% | -23% | -9% | -2.8% | 3%
CC(=O)N1CCc2ccc(S(=O)(=O)Nc3ccccc3Cl)cc21 | -2% | . | . | 1% | . | 1% | . | -1%
CCCCOC(=O)c1ccc(NC(=O)c2cc3c(=O)n4cccc(C)c4nc3n2C)cc1 | -11% | 1% | . | . | 12%[46.1 µM] | . | -2.3% | .
Cn1cc(Cl)c(C(=O)NC2CCCCCC2)n1 | . | 2% | ? | -7% | 9% | 1% | 4.1% | 1%
Cc1cc(C)c2nc(SCCC#N)nc(C)c2c1 | 12% | -5% | 14%&14% | -11% | 9% | -4% | 0.0% | -16%
Cc1cc(NC(=O)CCC(=O)N(Cc2ccco2)C2(C(=O)NC3CCCC3)CCC(C)CC2)no1 (stereo not given) | -7% | . | -18%[46.1 µM] | 6% | . | 5% | . | 18%
COc1ccc(N2CCN(c3nc(Cl)nc(Nc4ccc(F)cc4)n3)CC2)cc1 | -6% | ? | ? | -15% | -22% | -2% | -4.3% | 2%
CCn1c(COc2ccccc2)nc2ccccc21 | 8% | 3% | -1% | -22% | 25% | 17% | -1.7% | -9%
CCc1nn2c(=O)c(S(=O)(=O)Nc3cccc(F)c3)c(C)nc2s1 | 8%&-3% | -12% | -3%&-1%[46.1 µM] | 16% | ? | -2% | -1.9% | 4%
O=C1CCC[C@@H]2CC(N3CCCCC3)C[C@@H]3CCN1[C@H]23 (stereo not given in full) | -18% | 1% | . | 0% | . | 6% | 0.9% | .
C[C@@]12C(=O)N(Cc3ccc(-c4ccccc4)cc3)CC(=O)N1[C@H](/C=C/c1ccccc1)[C@@H]1C(=O)N(c3ccccc3)C(=O)[C@@H]12 | ? | . | . | 0% | . | -5% | . | ?
COc1ccccc1N1CCN(C(c2ccccn2)c2nnnn2C2CCCCC2)CC1 (stereo not given) | -19% | ? | ? | 7% | -12% | -6% | 5.4% | -19%
C=CCNC(=O)C1CCN(S(=O)(=O)c2ccc(Br)cc2)CC1 | -15% | -1% | -10% | 6% | -6% | 10% | 3.2% | -11%
O=C1CC2(CCN(S(=O)(=O)c3ccccc3F)CC2)Oc2ccccc21 | ? | . | 9% | -9% | ? | -3% | . | .
Cc1ccc(C(=O)OCC(=O)Nc2ncc(Cl)cc2Cl)cc1NC(=O)c1ccco1 | -8% | -9% | -25% | 2% | 1% | 8% | -5.3% | -1%
CCN(CC)S(=O)(=O)c1cccc(NC(=O)CNc2cccc(S(=O)(=O)N3CCCC3)c2)c1 | -5% | . | ? | -19% | ? | -4% | . | 4%
Cc1ccc2cc(C(c3nnnn3C3CCCC3)N3CCN(c4ccccc4)CC3)c(=O)[nH]c2c1 (stereo not given) | -13% | -29% | ? | -13%[3.69 µM] | -26% | 10% | -5.1% | 13%
Cc1nc2c(-c3ccc(F)cc3)c(C)nn2c(C)c1CCC(=O)NCc1ccco1 | -9% | 12% | . | 2% | . | -2% | 2.2% | 3%
O=S(=O)(Nc1ccon1)c1ccc(Br)cc1 | -4% | . | -1%[46.1 µM] | 16% | 30%[46.1 µM] | -1% | . | 2%
COc1ccc(/C=C(/C#N)c2cccnc2)cc1OC | 2% | -11% | 1% | 0%[18.4 µM] | -9% | -6% | -8.2% | 0%
CCOc1ccccc1NC(=O)Cn1c(=O)n(-c2cccc(C)c2)c(=O)c2c1c1cc(OC)ccc1n2C | -23% | 3% | ? | . | 7%[46.1 µM] | . | -1.9% | .
COc1ccc(NS(=O)(=O)c2cccc(C(=O)N(C)Cc3cccs3)c2)cc1 | 32%[activator] | . | -3% | -9% | -27% | 6% | . | .
Cc1ccccc1OCC(=O)Nc1nnc(C2CCCCC2)s1 | 0% | . | . | -10% | . | 1% | . | 2%
COc1ccc(OC)c(/C=C/C(=O)OCC(=O)NCc2ccccc2)c1 | -21% | . | 1% | -7% | -19%[46.1 µM] | 3% | . | .
O=[N+]([O-])c1ccc(N/N=C/c2cn(Cc3ccc(F)cc3)c3ccccc23)nc1 | ? | 7.9µM* | ? | -3% | 7% | 0% | -9.3% | -3%
CC(C)OCCCNC(=O)Cn1c(-c2cccs2)cc2cc(F)ccc21 | ? | 3% | -5%[46.1 µM] | . | -6%[46.1 µM] | . | -2.0% | .
O=c1[nH][nH]c(-c2ccccc2O)c1C(C[N+](=O)[O-])c1ccc(Br)cc1 (stereo not given) | ? | 17% | ? | ? | ? | -34% | -8.9% | -40%
C=CCNC(=S)Nc1cccc(NC(=S)NCC=C)c1 | 20% | -1% | 12% | 5% | 20% | 15% | -3.1% | 0%
COc1ccc(-n2cnnc2SCC(=O)Nc2ccc(C(N)=O)cc2)cc1 | 7% | . | 2%[46.1 µM] | 16% | -14% | 1% | . | -10%
COc1ccc(CC(=O)Nc2c3c(nn2-c2cccc(C)c2C)CS(=O)(=O)C3)cc1 | -5% | -2% | -7% | -3% | 1% | 2% | -4.3% | -6%
COC(=O)c1ccc(COc2cccc3c2CCN(Cc2cccc(C)c2)C3=O)o1 | ? | -8% | . | 9% | -35% | -72% | -7.5% | -2%
Cc1ccc(/C=N\NC(=O)c2cc([N+](=O)[O-])cc([N+](=O)[O-])c2)o1 | -13% | -1% | 1% | -10% | 1% | 2% | -13% | 13%
COc1ccccc1N1CCN(C(=O)c2cccc3c(=O)c(C)c(-c4ccccc4)oc23)CC1 | -2% | ? | -5% | 10% | . | 12% | -4.1% | -19%
CCOc1cccc(C(=O)Nc2ccc3ccccc3c2)c1 | ? | . | ? | -1% | ? | 0% | . | -1%
CCN(CC)c1ccc2c(Cl)c(Br)c(=O)oc2c1 | ? | -12% | ? | -18% | ? | -32% | -11% | -110%
CC(=O)Nc1cccc(-n2c(=O)n(Cc3ccccc3)c(=O)c3[nH]cnc32)c1 | -22% | . | . | 15% | . | -1% | . | -1%
COc1ccc(CN(C(=O)c2ccc(OCC(C)C)cc2)C2CCS(=O)(=O)C2)cc1 (stereo not given) | -8% | ? | -32%[46.1 µM] | . | ? | . | -5.0% | .
CC1(C)CC(=O)N(c2ccc(Cl)cc2Cl)C(=O)C1 | -28% | . | -2% | 23% | 0% | 0% | . | 1%
COc1ccc(NC(=O)c2ccc(NC(=O)CN(C)CC(=O)Nc3c(C)cccc3C)cc2)cc1 | -5% | . | -21%[46.1 µM] | -14% | -6% | 2% | . | -3%
CCc1ccc(C(=O)N2CCCC2)s1 | 27% | -12% | 3% | 9% | 5% | -10% | 0.9% | -45%
CC1=CC(=O)N(c2cccc(C(F)(F)F)c2)C1c1ccc(Cl)cc1 (stereo not given) | ? | -7% | ? | 1% | -8% | -18% | -3.9% | -68%
CCN(CC)c1ccc(NC(=S)NC(=O)C2CCC2)cc1 | 0% | . | 4%[46.1 µM] | ? | -6%[46.1 µM] | 13% | . | -4%
CCOC(=O)c1ccn(-c2nc(-c3cccc(OC)c3)cc(C(F)(F)F)n2)n1 | ? | ? | 11%[46.1 µM] | . | 18%[46.1 µM] | . | -15% | .
Cc1ccccc1C(=O)c1cccn1CC(=O)NC1CCCC(C)C1C (stereo not given) | 3% | . | -21%[46.1 µM] | -7% | 14%[46.1 µM] | -2% | . | -27%
NS(=O)(=O)c1ccc(NC(=O)COC(=O)C2CCCCC2)cc1 | 55%[activator] | . | 14%[46.1 µM] | 14% | 2% | 0% | . | -3%
Brc1ccc(Sc2cnc3ccccc3n2)cc1 | 4% | 7% | -5% | -20% | -5% | . | 2.1% | 6%
CCOC(=O)Cc1csc(NC(=O)CSc2nnnn2-c2ccc(CC)cc2)n1 | -13% | 16% | -11%&-11% | -1% | -15% | 6% | -9.7% | -10%
O=C(O)CCN1C(=O)/C(=C\c2cccc(Oc3ccccc3)c2)SC1=S | -18% | . | 0% | -18% | 0% | -2% | . | ?
CC(O)c1nc2ccccc2n1C1CCCCC1 (stereo not given) | 1% | 5% | 5% | -9% | -12% | 0% | 1.3% | 2%
Cn1c(SCCN2CCCC2)nnc1C1CCN(S(=O)(=O)c2cccc(F)c2)CC1 | 13% | . | ? | -13% | . | 0% | . | 11%
COCCCNC(=O)c1c[nH]c2ccc(S(=O)(=O)N3CCc4ccccc43)cc2c1=O | ? | . | ? | 23% | ? | -3% | . | .
CCn1nnnc1NCc1ccc(Cl)cc1 | 4% | . | 3% | -7% | 20% | 1% | . | 9%
CCOc1ccc(-c2c(C)nn3c(C)c(C(=O)Nc4ccccc4C(=O)OC)cnc23)cc1OCC | -14% | -3% | . | . | 0%[46.1 µM] | . | -0.5% | .
CCc1cccc(C)c1NC(=O)Cn1nc(C)n2cccc2c1=O | 6%&-7% | -10% | ? | -4% | -3%[46.1 µM] | -5% | -16% | 7%
COc1ccc(NC(=O)C2CCCN(S(=O)(=O)c3ccc4[nH]c(=O)ccc4c3)C2)cc1Cl (stereo not given) | ? | 5% | . | . | 0%[46.1 µM] | . | -5.1% | .
CCN(CC)CCOC(=O)c1ccc(N/C=C(/C#N)c2nc(-c3cccc(OC)c3)cs2)cc1 | -4% | . | ? | 3% | 26% | -14% | . | -43%
Cc1c(CN(C)C(=O)c2ccc(Br)o2)cnn1C | 19% | 10% | ? | 22% | -1% | 17% | -2.8% | 7%
